# Cruzain Triton – inhibitors of Trypanosoma cruzi cruzain with detergent; P25779; purified cruzain, Z-FR-AMC fluorescence, 0.01% Triton; Potency, µM, inactives show max response, negative = inhibition, usual class: inhibitors; actives 0.43% (n = 200,000); AID 1478; active = well fitted curve in the direction sought with a large enough effect; inconclusive = small, poorly fitted or top-dose-only effect, or another doubt; inactive = no such curve, though single readings can be large; an effect the other way counts as inactive or inconclusive;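 note: plate controls were neutral wells for no effect and buffer without enzyme for full effect; nearly all actives have a fitted effect of over 40% in size; top concentration of the series not given in the record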
# Target sequence (P25779 123-467 limits assumed): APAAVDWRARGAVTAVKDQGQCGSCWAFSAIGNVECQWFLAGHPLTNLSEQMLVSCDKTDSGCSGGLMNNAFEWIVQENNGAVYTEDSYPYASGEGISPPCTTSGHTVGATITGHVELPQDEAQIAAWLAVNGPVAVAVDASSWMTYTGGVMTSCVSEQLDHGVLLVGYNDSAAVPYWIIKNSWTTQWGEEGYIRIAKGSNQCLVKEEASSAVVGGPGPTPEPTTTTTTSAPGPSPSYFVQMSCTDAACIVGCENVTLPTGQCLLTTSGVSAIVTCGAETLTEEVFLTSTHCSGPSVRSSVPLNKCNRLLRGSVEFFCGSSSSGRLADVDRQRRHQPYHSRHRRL
#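 Detergent-containing run (0.01% Triton X-100) in acetate buffer pH 5.5 with 5 mM DTT: enzyme at 1.5 nM final, 15 min compound preincubation at room temperature, then 2 uM Z-FR-AMC substrate. Activity taken as 60 s fluorescence increase at 360/450 nm.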
# SARS PLP yeast – SARS-CoV PLP inhibition in yeast. S. cerevisiae expressing SARS-CoV PLpro, growth rescue; control for the full effect not named in the record. Potency, µM (series often up to 32.9 µM), for the others: at the top dose activity, positive = growth rescue. actives 0.19% (n = 330,000). AID 485353; note: 0% is about no effect; nearly all actives have a fitted effect of over 55% in size; growth read by luminescence after 48 h
# Lassa entry inh – blocks Lassa virus binding to or entry into cells | Lassa virus pseudotype entry inhibition, cell reporter; control for the full effect not named in the record | actives 1.2% (n = 300,000) | Potency, µM (series often up to 37.9 µM), for inactives: top-dose activity change, negative = inhibition, most hits filed as inhibitors | AID 540256; active means well fitted inhibition curve with a large enough effect; inconclusive means small, poorly fitted or top-dose-only effect, or effect the other way; inactive means flat fitted curve, though single readings scatter; tested in HEK293 cells; note: % is set by controls: 0 for no effect and ±100 for the full control effect; nearly all actives have a fitted effect of over 50% in size; luciferase read-out
# MARV entry inh – inhibitors of Marburg virus binding or cell entry; Marburg virus pseudotyped entry inhibition, cell reporter; control for the full effect not named in the record; about a third of the inactives were read at about 46 µM; Potency, µM (doses to about 37.8 µM), for the others: at the highest dose activity change, negative = inhibition, actives largely listed as inhibitors; actives 1.8% (n = 300,000); AID 540276; active = well fitted inhibition curve with a large enough effect; inconclusive = small, poorly fitted or top-dose-only effect, or effect the other way; inactive = flat fitted curve, though single readings scatter; tested in HEK293 cells; about a fifth of its hits are not listed in these tables; note: % is set by controls: 0 for no effect and ±100 for the full control effect; luciferase read-out
# RE007 growth inh – less growth of the S. pombe RE007 Vpr strain; S. pombe RE007 Vpr strain, BacTiter-Glo ATP luminescence, 24 h; control for the full effect not named in the record; actives 0.21% (n = 360,000); Potency, µM (highest dose often 92.2 µM), for the others: at the highest dose activity change, negative = less growth; active = well fitted falling curve with a large enough effect; inconclusive = small, poorly fitted or top-dose-only effect; inactive = no such curve, though single readings can be large or run the other way;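 note: % is set by controls: 0 for no effect and ±100 for the full control effect; nearly all actives have a fitted effect of over 50% in size; the assay follows cell death caused by Vpr and the record does not say whether a fall means rescue or toxicity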
#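 Fission yeast RE007 carrying one integrated HIV-1 vpr copy, seeded at OD 0.01 in PMG+AL medium with 23 nL pinned compound. Grown 24 h at 30 degrees; viability read by BacTiter-Glo luminescence after 5 min.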
# NS1 inh – blocks influenza NS1 protein function; S. cerevisiae slowed by influenza A NS1, growth recovery by OD600; Potency, µM (series often up to 46.1 µM), inactives show top-dose activity, positive = more growth; actives 0.4% (n = 270,000); AID 2326; note: actives are rising curves; nearly all actives have a fitted effect of over 50% in size
#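 A cell-based growth assay was used: compounds that relieve NS1-induced slow growth of budding yeast raise OD600. Assay medium was yeast nitrogen base with ammonium sulphate and -URA supplement, pH 6.0, with 2% galactose.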
# 2A StopGo – lowers the luciferase signal of an FMDV 2A StopGo reporter; human cells with a luciferase reporter of 2A StopGo recoding; control for the full effect not named in the record; Potency, µM (series often up to 57.9 µM), inactives show at the top dose signal change, negative = less light; actives 1.2% (n = 410,000); AID 1159524; active = well fitted falling curve with a large enough effect; inconclusive = small, poorly fitted or top-dose-only effect; inactive = no such curve, though single readings can be large or run the other way; tested in HEK293T cells; note: % is set by controls: 0 for no effect and ±100 for the full control effect; nearly all actives have a fitted effect of over 45% in size; luciferase light after 4 h
# Cruzain inh noDet – inhibitors of Trypanosoma cruzi cruzain without detergent; Potency, µM, for inactives: max response, negative = inhibition, hits mostly inhibitors; P25779; purified cruzain, Z-FR-AMC fluorescence, no detergent; actives 2.3% (n = 200,000); AID 1476; active = well fitted curve in the direction sought with a large enough effect; inconclusive = small, poorly fitted or top-dose-only effect, or another doubt; inactive = no such curve, though single readings can be large; an effect the other way counts as inactive or inconclusive;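 note: plate controls were enzyme without inhibitor for no effect and buffer without enzyme for full effect; nearly all actives have a fitted effect of over 40% in size; top concentration of the series not given in the record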
#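 Purified cruzain at 1.5 nM, pre-incubated 15 min with compound at room temperature in 100 mM sodium acetate pH 5.5, 5 mM DTT, 0.00005% Triton X-100. Reaction started with 2 uM Z-FR-AMC; AMC fluorescence increase over 60 s gives rate.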
# * = called active by the depositor; ? = inconclusive; · = not tested or not shown; & = joins results of further samples; [ ] = another dose, or the depositor's remark. Unless noted, calls come from the whole dose curve; as a rule, active means well fitted rising curve with a large enough effect; inconclusive means small, poorly fitted or top-dose-only effect; inactive means no such curve, though single readings can be large or run the other way. Potency is the fitted concentration of half-maximal effect.
SMILES,Cruzain Triton,SARS PLP yeast,Lassa entry inh,MARV entry inh,RE007 growth inh,NS1 inh,2A StopGo,Cruzain inh noDet
COC(=O)CNC(=O)/C=C/c1cc(Br)ccc1OC,·,-2%,-17%[46.1 µM],?,5%,·,-14%,·
Cc1c(C)c2c(OCC(=O)N3CCC[C@H]3C(=O)O)cc3c(c2oc1=O)CCC(C)(C)O3,·,2%,·,·,-12%,?,0%,·
Cc1cc(C)c(S(=O)(=O)Nc2cnc3ccccc3c2)c(C)c1,·,-7%,?,2%[46.1 µM],-6%,-27%,31%[activator],·
Cc1ccc(S(=O)(=O)c2cnc(SCC(=O)Nc3ccc4c(c3)OCCO4)[nH]c2=O)cc1,-7.6%,·,·,4%[46.1 µM],·,·,-10%,6%
CCOC(=O)c1c(S(=O)(=O)NCC2CCN(Cc3cccc(F)c3)CC2)c(C)n(C)c1C,·,-5%,·,·,-8%,3%,24%,·
C/C(=N\N1C(=O)CSC1=S)c1ccc(Br)cc1,·,-1%,-18%,26%[46.1 µM],3%,·,-8%,·
CCOC(=O)N1CCN(CCC(=O)Nc2ccc(C)cc2)CC1,4.4%,1%,-23%,13%,-4%,6%,0%,0%
CCC1Oc2ccccc2N(CC(=O)NCCCN2CCC(C)CC2)C1=O (stereo not drawn),-0.5%,2%,-8%,-6%,-4%,-6%,·,10%
COc1ccc(NC(=O)C(NCC(C)C)c2ccccc2)cc1Cl (stereo not drawn),·,0%,22%,-19%[46.1 µM],-11%,-3%,3%,·
Cc1ccc(-n2ncc3c(NCCc4ccccc4)ncnc32)cc1,-0.7%,·,-1%[46.1 µM],·,·,·,36%[activator],-17%
CCc1ccc(OCc2nnc(SCC(=O)N3CCN(c4ccccc4)CC3)o2)cc1,-1.5%,7%,-11%,-19%,-17%,6%,-18%,-16%
COC(=O)c1sccc1NC(=O)c1ccc(OC)c(OC)c1,6.4%,1%,-2%,11%[46.1 µM],-7%,-5%,-4%,8%
O=C(CN(Cc1ccccc1)C(=O)c1ccc2c(c1)OCCO2)NCc1ccc2c(c1)OCO2,-1.8%,1%,-30%,1%&-13%,12%,-6%,28%,-4%
Cc1oc2c(cc(NS(=O)(=O)c3ccc(C(C)C)cc3)c3ccccc32)c1C(=O)OCc1ccccc1,1.0%,·,4%[46.1 µM],4%[46.1 µM],·,·,14%,?
CCN(c1ccccc1)S(=O)(=O)c1ccc(C(=O)Nc2ccc(C)cn2)cc1,·,3%,?,-3%[46.1 µM],9%,·,-21%,·
COc1ccc(NC(=O)c2ccc3oc(=O)c(S(=O)(=O)c4ccc(F)cc4)cc3c2)c(OC)c1,1.4%,·,4%[46.1 µM],2%[46.1 µM],·,·,?,-4%
O=C(O)/C=C/c1ccc(S(=O)(=O)Nc2ccc(OCc3ccccc3)cc2)cc1,·,2%,·,·,8%,?,3%,·
O=C(O)CCn1cc(/C=C/C(=O)c2ccc(Cl)cc2)c(-c2ccc(Br)cc2)n1,?,-24%,-26%,-25%,?,-3%,16µM*,-16%
O=C(NC1(C(F)(F)F)NC(=O)N(c2ccc(F)cc2)C1=O)c1ccncc1 (stereo not drawn),1.2%,2%,-1%,7%,18%,5%,-14%,14%
COc1ccccc1C1CC2CCC(C1OC(C)=O)N2Cc1ccccc1 (stereo not drawn),·,6%,·,·,-1%,24%,-26%,·
CCOC(=O)N1CCC(NC(=O)CCC(=O)N2CC(C)Oc3ccccc32)CC1 (stereo not drawn),2.5%,-1%,1%,2%,17%,-4%,-7%,-2%
CCc1ccc(OCC(=O)Nc2ccc(Cl)c(-c3nc4cc(C)cc(C)c4o3)c2)cc1,-0.2%,·,11%[46.1 µM],2%[46.1 µM],·,·,-11%,11%
O=C(O)c1ccccc1S,2.4%,-8%,-3%,-9%&-9%&-9%,·,4%,·,-4%
O=C(CCCCCn1c(=O)[nH]c2ccccc2c1=O)N1CCN(Cc2ccc3c(c2)OCO3)CC1,-2.3%,2%,16µM*,?,0%,?,?,6%
CN(C)CCCN1c2ccccc2Sc2ccc3ccccc3c21,1.7%,·,?,?,11%,-5%,?,-4%
CC(C)CNC(=O)COC(=O)c1cccc(S(=O)(=O)NCC(F)(F)F)c1,·,-1%,26%,?,6%,5%,-1%,·
CC1CCCN(C(=O)C(=O)c2cn(CC(=O)N3CCCCCC3)c3ccccc23)C1 (stereo not drawn),·,·,-12%[46.1 µM],-29%[46.1 µM],6%,24%,-6%,·
Cc1ccc(-n2c(SCC(=O)NC3CCS(=O)(=O)C3)nc3ccccc3c2=O)cc1C (stereo not drawn),·,21%,-29%,-24%,2%,·,-5%,·
CC(C[N+](C)(C)C)OC(N)=O (stereo not drawn),2.2%&5.0%&3.6%,12%,33%&13%,7%&17%&17%&17%&17%&-17%&17%&17%&17%&17%,-7%[18.4 µM],4%&0%,0%&-1%,6%&5%&-3%
O=C(Nc1cccc(-c2cnc3ccccc3n2)c1)c1ccco1,-11%,-5%,1%,?,?,-115%,-17%,7%
CNC(=O)CSc1nc2c([nH]c3ccccc32)c(=O)n1CCOC,·,-1%,2%,1%,15%,·,-7%,·
NS(=O)(=O)c1ccc(CNC(=O)c2ccc(C(=O)c3ccccc3)cc2)cc1,·,-5%,13%[46.1 µM],-15%[46.1 µM],9%,·,-9%,·
COCc1nnc(NS(=O)(=O)c2ccccc2)s1,4.1%,3%,-5%,-2%,10%,-3%,-9%,-4%
COc1ccccc1C(=O)Nn1c(C2CCC2)nc2ccccc2c1=O,1.1%,1%,?,?,-5%,-5%,-17%,-6%
CCOC(=O)c1oc2c(c1C)C(=O)CCC2,-0.2%,11%,8%,23%,-14%,-15%,-3%,1%
COCCn1c(=O)[nH]c2cc(C(=O)Nc3ccc(OC)c(Cl)c3)ccc2c1=O,·,2%,10%,15%[46.1 µM],4%,-5%,5%,·
COc1ccccc1OCC#CCN1CCCC(C)C1 (stereo not drawn),·,0%,·,·,6%,11%,13%,·
CCCNC(=O)c1ccc2c(c1)nc(C)n2-c1cccc(Cl)c1,·,1%,·,·,12%,-10%,-3%,·
N#Cc1ccc(CC(=O)c2ccccc2)[nH]c1=O,·,·,6%,6%,-15%,·,72%[activator],·
O=C(Oc1ccc(Br)cc1C(=S)N1CCOCC1)c1ccc(F)cc1,·,-15%,·,·,-10%,-44%,6%,·
COc1ccc(C(=O)/C=C/Nc2ccc(C)cn2)cc1OC,-10%,?,?,-6%,?,-32%,44%[activator],?
O=C(NC(c1ccc(Cl)cc1)P(=O)(Oc1ccccc1)Oc1ccccc1)OCc1ccccc1 (stereo not drawn),-0.2%,11%,-19%,-19%,2%,6%,-24%,?
CCCCCCNC(=O)CC(c1ccccc1)c1cc(Br)ccc1O (stereo not drawn),-2.9%,-82%,?,?,3%,-51%,?,-11%
Cc1ccccc1OCC(=O)OCC(=O)NC1CC1,·,0%,5%,?,21%,·,-6%,·
COc1ccc(C2=CSC3=NCCN23)cc1OC,·,-3%,·,·,-15%,-3%,2%,·
CC12CCC3C(CC=C4CC(O)CCC43C)C1C/C(=C\c1ccccc1F)C2=O (stereo not drawn),-3.4%,-27%,?,-29%,6%,9%,-23%,?
Cn1c(=O)c2c(nc(NCCO)n2CCCc2ccccc2)n(C)c1=O,·,-1%,·,·,-8%,21%,?,·
CCCCC(SCC(=O)Nc1ccccc1)C(=O)O (stereo not drawn),0.6%,8%,-4%,-8%,20%,-15%,21%,3%
CC1=C(C#N)C(C(F)(F)F)(C(F)(F)F)N=C(c2ccco2)N1,-3.6%,2%,0%,?,-3%,-3%,·,-4%
NC1=NC(=O)/C(=C\c2ccc(O)c([N+](=O)[O-])c2)S1,·,0%,10%,6%,-24%,·,5%,·
CCCCN(C(=O)CCSc1ccc(F)cc1)c1c(N)n(Cc2ccccc2)c(=O)[nH]c1=O,·,2%,3%,-11%,19%,·,2%,·
CC(=O)Nc1ccc(N(CC(=O)NCC2CCCO2)C(=O)CCC(=O)Nc2cc(C)on2)cc1 (stereo not drawn),·,-3%,10%[46.1 µM],6%[46.1 µM],0%,6%,-3%,·
CC(=O)N1c2ccc(S(=O)(=O)N3CCCC3)cc2CC1C(=O)NCc1cccc(F)c1 (stereo not drawn),·,12%,-2%[46.1 µM],19%[46.1 µM],12%,-1%,3%,·
O=Cc1ccc2oc3nc4n(c(=O)c3c(=O)c2c1)CCCS4,-2.6%,-10%,3%,0%,-2%,?,-10%,-14%
CCCCN(C)CCNC(=O)c1cn(C)c(=O)c2c1c1ccccc1n2C,·,3%,-9%[46.1 µM],11µM*,-6%,2%,-10%,·
Cc1ccc(C)c(S(=O)(=O)/N=C2\C=C(NS(=O)(=O)c3ccccc3)C(=O)c3ccccc32)c1,·,-7%,30%[46.1 µM],-18%[46.1 µM],-8%,-2%,-11%,·
O=C(Nc1ccccc1C(=O)O)c1ccc2ccccc2n1,0.2%,-17%,0%,-7%,-1%,-36%,16%,7%
COc1ccc(-c2ccc(NS(=O)(=O)c3cc([N+](=O)[O-])c(C)c([N+](=O)[O-])c3)cc2)nn1,·,1%,·,·,-10%,-7%,76%[activator],·
COc1cc(S(=O)(=O)N(Cc2cccnc2)Cc2ccco2)ccc1-n1cnnn1,1.4%,0%,-24%,-3%,12%,0%,·,6%
CCNC(=O)CC1C(=O)N(CC)C(=S)N1NC(=O)c1ccc(Cl)cc1 (stereo not drawn),2.0%,5%,0%,1%,2%,8%,2%,15%
Cc1ccc(-n2c(=S)[nH]c3sc4c(c3c2=O)CCc2ccccc2-4)cc1,-1.4%,-3%,·,·,-2%,10%,-5%,-19%
COc1ccc(C2CC3(O)CC(C#N)(C(=O)N3)C2(C#N)C#N)cc1 (stereo not drawn),·,1%,·,·,21%,2%,-25%,·
CCN(CCCNC(=O)CCCCn1c(=O)[nH]c2ccccc2c1=O)c1ccccc1,-1.7%,-3%,?,?,12%,-13%,-21%,-6%

# Screens as filed in PubChem BioAssay.

# Random draw from the library; about 4.8% have a hit in one of these screens.
